Screening data from PubChem.
NPYLR7 agonist – activates Aedes aegypti NPYLR7 receptor | HEK293T NPYLR7/Galpha15, GCaMP6s calcium fluorescence | activation, % at 10 µM | hit rate 0.15% among 270,000 | AID 1259423; in the data active = activation above about 40%;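 note: 0% = vehicle and 100% = reference agonist at the receptor; some compounds past the cut are filed as inactive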
NPYLR7 agonist max-min – further read-out of NPYLR7 agonist, marked with its call; activation, %; measured here: Max-Min RFU normalised activation; some inactives read as strong as hits;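 span of the calcium signal over five minutes; 0% = vehicle and 100% = native peptide agonist; compound fluorescence can raise it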
* marks the source's active call; other numbers are inactive results; & = joins results of further samples. Only part of the results is shown, so the mix of outcomes need not match the whole.

structure	NPYLR7 agonist	NPYLR7 agonist max-min
CCc1noc(CN(CC)C(=O)C(C)Oc2cc(C)ccc2C)n1 (stereo not given)	14	10
CC(C)CCn1c(=O)c2c(nc3oc(-c4ccccc4)cn32)n(C)c1=O	-8	-9
O=C(O)c1cccc(CC2CCN(Cc3cnc(-c4ccco4)nc3)C2)c1 (stereo not given)	4	-7
CCN(CC)CCNc1cc(C)nc2cc(-c3ccc(OC)c(OC)c3)nn12	4	6
C=CCn1c(SCC(=O)/C(C#N)=C(\C)N)nnc1-c1ccc(F)cc1	1	14
O=C(NCCc1ccccc1F)N1CCN(S(=O)(=O)c2cccc(Cl)c2)CC1	1	2
C=CCN(Cc1csc(COc2ccc(Cl)cc2)n1)C(C)=O	0	-11
O=C1CC(NCc2ccc(C#CCO)s2)CN1C1Cc2ccccc2C1 (stereo not given)	-2	-3
COc1ccc(C(=O)Nc2ccccc2C(=O)O)cc1[N+](=O)[O-]	2	11
CN=c1nc(-c2ccccc2)n(-c2ccc(C)cc2)s1	21	17
CC1(C)CC(=O)C(C2(O)C(=O)N(Cc3ccccc3)c3ccccc32)CO1 (stereo not given)	-1	-1
COc1ccc(-c2cc(C(=O)NCCN3CCOCC3)n3nc(-c4ccc(Cl)cc4)cc3n2)cc1	15	15
O=C(Nc1ccccc1Cl)Nc1ccnn1C1CCN(C(=O)C2=CCCC2)CC1	15	4
Nc1cc(-c2ccc(Cl)cc2)nn1-c1ccc(C(=O)N2CCC(O)(c3ccccc3)CC2)cc1	-5	-6
CCONC(=O)c1cccc(CSC)c1	5	3
O=C(NCc1ccc(F)cc1)C(C1CCCC1)N1CCN(C(=O)c2ccco2)CC1 (stereo not given)	0	7
COc1ccc(S(=O)(=O)NCCCN2CCOCC2)c(C)c1C	-2	-3
CC(C)COC(=O)N1CC(=O)N(C2Cc3ccccc3C2)CC(O)C1 (stereo not given)	8	9
CCc1nc2n(n1)C(=O)C(C(c1ccc(OC)c(OC)c1)N1CCN(CC)CC1)S2 (stereo not given)	-2	-8
CCc1cc(CN(C)Cc2c(F)ccc(C)c2F)on1	1	-1

Structures shown so far with a Cl atom (5):
structure	NPYLR7 agonist	NPYLR7 agonist max-min
O=C(NCCc1ccccc1F)N1CCN(S(=O)(=O)c2cccc(Cl)c2)CC1	1	2
C=CCN(Cc1csc(COc2ccc(Cl)cc2)n1)C(C)=O	0	-11
COc1ccc(-c2cc(C(=O)NCCN3CCOCC3)n3nc(-c4ccc(Cl)cc4)cc3n2)cc1	15	15
O=C(Nc1ccccc1Cl)Nc1ccnn1C1CCN(C(=O)C2=CCCC2)CC1	15	4
Nc1cc(-c2ccc(Cl)cc2)nn1-c1ccc(C(=O)N2CCC(O)(c3ccccc3)CC2)cc1	-5	-6

Three entries from above, sorted by count of non-hydrogen atoms, largest number first.
structure	NPYLR7 agonist	NPYLR7 agonist max-min
CCN(CC)CCNc1cc(C)nc2cc(-c3ccc(OC)c(OC)c3)nn12	4	6
O=C1CC(NCc2ccc(C#CCO)s2)CN1C1Cc2ccccc2C1 (stereo not given)	-2	-3
CC(C)COC(=O)N1CC(=O)N(C2Cc3ccccc3C2)CC(O)C1 (stereo not given)	8	9

Next part
structure	NPYLR7 agonist	NPYLR7 agonist max-min
CN(CC(=O)Nc1cc(C(C)(C)C)nn1-c1ccc(Cl)cc1)C(=O)c1cc(C(F)(F)F)cc(C(F)(F)F)c1	-2	4
Cn1cnnc1-c1ccccc1NC(=O)c1cccc(OC(F)F)c1	9	8
O=c1c2c(-c3ccc(Cl)cc3)n3ncnc3nc2ccn1CCCO	3	4
Cc1nn(C(C)C(=O)NCCC(C)C)c(=O)c2cc3occc3n12 (stereo not given)	7	2
O=S(=O)(c1ccccc1)C1(S(=O)(=O)c2ccccc2)CCCC1	2	-9
CCCCOCCOCC(=O)N1CCN(Cc2ccc(-c3noc(COC)n3)cc2)CC1	-3	-4
O=C(NCCn1ncc2c(=O)n(Cc3cccc4ccccc34)cnc21)c1ccc2c(c1)OCO2	-4	-11
Nc1cc(N)cc(C(F)(F)C(F)(F)C(F)(F)F)c1	-1	-2
CC(C)c1ccc(Nc2nnc(SCCN3CCOCC3)s2)cc1	-1	-1
O=C1OC(c2ccccc2F)=NC1=Cc1ccco1	12	9
CCOc1ccc2nc(N3CCCC(N4CCN(c5nonc5C)CC4)CC3)nc(C)c2c1 (stereo not given)	5	9
CCCc1ccc(C2(C)NC(=O)N(CC(=O)Nc3ccc(S(=O)(=O)N(C)C)cc3)C2=O)cc1 (stereo not given)	1	15
O=C(C1CCCCC1)N1CCSC1c1ccc(F)cc1F (stereo not given)	8	20
O=C(NCC1CCCO1)C1COC2(CCCCC2)N1C(=O)c1ccc(Cl)c(Cl)c1 (stereo not given)	14	1
COc1cccc(Cn2cccc2CN(Cc2ccccc2)C(=O)CN(CC(C)C)C(=O)Nc2ccccc2C(F)(F)F)c1	-3	7
CC(=O)N[C@H]1C[C@@H](CCn2nc(C)cc2C)O[C@@H](CCc2ccccc2)C1	14	13
O=c1ccc(-c2ccc(Cl)cc2)nn1CCCNS(=O)(=O)c1cccnc1	0	-2
O=C(NCc1cccnc1)c1nn(-c2ccc(Cl)cc2)c(=O)n(Cc2cccc(Cl)c2)c1=O	9	14
CCCNC(=O)C1(C)CCCN(Cc2ccsc2)C1 (stereo not given)	0	-2
Cc1noc(COCC(=O)N2CC(C)C(N(C)C)C2)n1 (stereo not given)	-1	-2
Cc1cn2c3c(=O)n(CCN4CCCCC4)c(=O)n(C)c3nc2n1-c1ccccc1	8	5
C#CCOc1cccc(NC(=O)CSC2CCS(=O)(=O)C2)c1 (stereo not given)	1	2
COc1ccc2c(c1)CN(Cc1ccco1)C(=O)CCN2[C@@H]1CCC[C@H]1O	26	29
COc1cccc(N2CCN(c3cc(CCN)nc(C)n3)CC2(C)C)c1	2	0
N#CC(NC(=O)C1CC1c1ccc(Cl)cc1)C1CCOC1 (stereo not given)	-23	-26
Cc1nn(C)c(C)c1CCC(=O)N1C[C@@H]2[C@H](C1)[C@H]1CC[C@@H]2O1	10	9
CC1(Cc2ccc(C(F)(F)F)o2)C(=O)Nc2ccc(-c3ccc4[nH]ccc4c3)cc21 (stereo not given)	-2	4
Cc1ccc(C)c(C(=O)Cn2cc(Br)ccc2=O)c1	5	1
CCOc1c(CC)cnc2c1c(=O)n(CC(=O)NC(C)(C)C)c(=O)n2C	1	-1
COc1cccc(COc2c[nH]c(C(=O)Nc3ccc(C)cc3)cc2=O)c1	5	2
C=CCN(Cc1ccccn1)C(=O)C1CNCCO1 (stereo not given)	-6	-8
O=C(Cc1ccccc1Cl)N1CCN(c2cc(-c3cccnc3)[nH]n2)CC1	-6	-6
CN(Cc1ccccc1)c1onc(-c2ccccc2)c1CNCC1CCCO1 (stereo not given)	23	29
O=C(c1cc(=O)c(OCc2ccc(F)cc2)co1)N1CCc2ccccc21	1	2
Cc1cc(N2CCSCC2)ccc1NC(C)C(=O)N1CCOCC1 (stereo not given)	-21	-21
Cn1c(SCC(=O)Nc2cccc(Cl)c2)nc2c(-c3ccccc3)c[nH]c2c1=O	-2	-9
COc1ccc(NC(=O)NCCS(=O)(=O)c2c(C)n(C)c3ccccc23)cc1OC	-1	11
Cn1nc(-c2ccc(N3CCOCC3)c(NS(C)(=O)=O)c2)c2ccccc2c1=O	-9	-11
O=C(c1ccc2c(c1)OCO2)N1CCN(c2ccc(F)cc2)CC1	5	-1
CC(=O)Nc1nc(CN(C)Cc2ccccc2)cs1	7	5

Exported field by field: entries from further up.
COc1cccc(COc2c[nH]c(C(=O)Nc3ccc(C)cc3)cc2=O)c1
  NPYLR7 agonist: 5
  NPYLR7 agonist max-min: 2
C=CCN(Cc1ccccn1)C(=O)C1CNCCO1 (stereo not given)
  NPYLR7 agonist: -6
  NPYLR7 agonist max-min: -8
O=C(Cc1ccccc1Cl)N1CCN(c2cc(-c3cccnc3)[nH]n2)CC1
  NPYLR7 agonist: -6
  NPYLR7 agonist max-min: -6

The list continues:
structure	NPYLR7 agonist	NPYLR7 agonist max-min
CC(=O)c1ccc(C(=O)N(Cc2cccnc2)c2nc3c(F)cccc3s2)cc1	-15	-15
O=C1CC(/C=C/c2ccc(Cl)cc2)=Nc2ccccc2N1	-2	-1
Cc1c(C(=O)NN2CCCCC2)nn(-c2ccc(Cl)cc2Cl)c1-c1ccc(Cl)cc1	12	-5
COCCOc1nc(-c2ccc(Cl)c(Cl)c2)n(-c2cccc(NC(=O)c3ccc(C)cc3)c2)n1	19	26
C#CCOCC(O)CN(CCC(C)C)Cc1cc(OC)cc(OC)c1 (stereo not given)	-1	-2
CCOc1ccc(C(=O)Nc2cccc(NC(=O)c3cccc(Cl)c3)c2)cc1[N+](=O)[O-]	0	6
CCCC/C(C)=N/NC(=O)CNS(=O)(=O)c1ccc([N+](=O)[O-])cc1	1	-2
CCOC(=O)c1c(C)n(-c2ccccc2)c2ccc(OC)cc12	-7	-11
CCCCn1c(N)c(N(C(=O)c2ccc(=O)n(C)n2)C2CCCC2)c(=O)[nH]c1=O	11	15
CC(=O)N[C@H]1C[C@@H](c2cnc(-c3ccccc3C)s2)O[C@@H](C(C)C)C1	2	1
O=c1oc2ccccc2cc1-c1csc(Nc2ccc(C(F)(F)F)cc2)n1	-2	-7
CCc1cc(=O)n2nc(N3CCCCC3c3cn[nH]c3)sc2n1 (stereo not given)	0	1
CN1CCCc2cc(CNc3nc4c(cnn4C)c(=O)[nH]3)ccc21	8	4
Cc1ccsc1CN(CCc1c[nH]c2ccccc12)Cc1nc(C(=O)N2CCCC2)co1	14	9
Cc1cccc(Cn2nc(C)c3c2NC(=O)CC3c2nc(C)ccc2O)c1 (stereo not given)	2	7
Cc1ncoc1C(=O)N(C)CC1CCN(CCc2ccc(F)cc2)CC1	2	-1
O=C(O)COc1ccc(OCCNC[C@H](O)COc2ccccc2)cc1	-15	-20
CC1c2cc(O)c(O)cc2CCN1C(=O)c1ccc(Br)cc1 (stereo not given)	3	-3
COc1cccc(C2c3c(n[nH]c3-c3cccc([N+](=O)[O-])c3)OC(=N)C2C#N)c1 (stereo not given)	-5	-10
O=C1CCCN1Cc1cccc(C(=O)N(CC(F)(F)F)C2CCCOC2)c1 (stereo not given)	-1	-2
O=[N+]([O-])c1ccccc1C1c2cccn2CCCN1Cc1cc(Cl)ccc1O (stereo not given)	1	10
Cn1c(=O)n(CCc2ccccc2)c2ccc(C(=O)O)cc21	4	4
CN(C)c1cccc(C(NC(=O)CCCCCNC(=O)OCc2ccccc2)c2ccc(S(C)(=O)=O)cc2)c1 (stereo not given)	-5	-12
O=C(c1cccnc1)c1ccc(Cl)cc1Cl	-4	-5
COC(=O)c1ccc(Oc2nc(NC(C)(C)C)nc(SC)n2)cc1	-9	-14
O=C(COc1ccccc1Cc1ccccc1)Nn1cnnc1	0	-1
CC(C)CC(=O)NC(C(=O)N1CCCCC1)C1CCN(C(=O)c2cccc(F)c2)CC1 (stereo not given)	-5	0
COCOc1cccc(CN2CCC2(C)C(=O)Nc2ccc(OC)c(OC)c2)c1 (stereo not given)	4	-1
COCc1nc2c([nH]1)c(=O)n(C)c(=O)n2CC(C)C	-11&6	-12&-38

Seven of the compounds above, with two lines to a compound:
Screens in order – NPYLR7 agonist, NPYLR7 agonist max-min
C#CCOCC(O)CN(CCC(C)C)Cc1cc(OC)cc(OC)c1 (stereo not given)
  -1, -2
C=CCN(Cc1csc(COc2ccc(Cl)cc2)n1)C(C)=O
  0, -11
CCCNC(=O)C1(C)CCCN(Cc2ccsc2)C1 (stereo not given)
  0, -2
N#CC(NC(=O)C1CC1c1ccc(Cl)cc1)C1CCOC1 (stereo not given)
  -23, -26
Nc1cc(-c2ccc(Cl)cc2)nn1-c1ccc(C(=O)N2CCC(O)(c3ccccc3)CC2)cc1
  -5, -6
CC(C)CCn1c(=O)c2c(nc3oc(-c4ccccc4)cn32)n(C)c1=O
  -8, -9
CC(C)c1ccc(Nc2nnc(SCCN3CCOCC3)s2)cc1
  -1, -1
